A1 inhib – A1 inhibition. caspase activation, % (concentration not given with the values). actives 0.51% (n = 21,000). MEF A1-2A-BIM cells, caspase-Glo luminescence, 3 h; percent of clofoctol signal, DMSO as zero. AID 2241;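 active = most replicate scores above 10, or exactly half above 10 with mean activity above 10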;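 note: effector caspase 3 and 7 activity cleaving a DEVD luciferin substrate; 50 nL library stock added to about 30 µL; numbers are from one replicate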
BJeLR viab HTS – lowers viability of BJeLR cells; viability loss activity score, % (test concentration not listed); AID 2275; actives 0.64% (n = 30,000); BJeLR fibroblasts viability, CellTiterGlo ATP luminescence, 48 h; HRASV12, hTERT and SV40 LT/ST transformed; in the data active = viability loss activity score above about 50%; about a fifth of its hits are not listed in these tables;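 note: higher score means fewer live cells and less ATP luminescence; stock transfer was 50 or 100 nL into about 30 µL; 0% = vehicle wells and 100% = a reference killing control; one replicate is shown; the record names a cut of 85%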
* hit, by the source's call. These rows are one share of the data, so the mix of outcomes need not match the whole.

SMILES	A1 inhib	BJeLR viab HTS
CN(C)CCCSc1ccccc1NC(=O)/C=C/c1ccccc1	-3.7	7.1
CC(C)(C)NCC(O)COc1cccc2c1CC(O)C(O)C2 (stereo not given)	0.3	-0.3
COc1cc(N)c(Cl)cc1C(=O)N[C@H]1CCN(CCCOc2ccc(F)cc2)C[C@H]1OC	0.3	3.1
CCCCC(=O)O[C@]1(C(=O)CO)[C@@H](C)CC2C3CCC4=CC(=O)C=C[C@]4(C)[C@@]3(F)C(O)C[C@@]21C (stereo not given in full)	0.6	-4.9
CCCCN(CCCC)CCCOC(=O)c1ccc(N)cc1	0.8	3.4
C=CCN1C[C@H](C(=O)N(CCCN(C)C)C(=O)NCC)C[C@@H]2c3cccc4[nH]cc(c34)C[C@H]21	-0.6	-0.3
CCn1cc(C(=O)O)c(=O)c2cc(F)c(N3CCNC(C)C3)c(F)c21 (stereo not given)	0.1	2.5
CC[C@]12CCCN3CCc4c(n(c5ccccc45)[C@](O)(C(=O)OC)C1)[C@@H]32	0.7	-1.1
CC(C)(C)NCC(O)COc1cccc2c1C[C@H](O)[C@H](O)C2 (stereo not given in full)	0.7	0.8
COc1ccc(C(=O)c2ccccc2)c(O)c1	-0.5	2.7
CC(Cc1cccc(C(F)(F)F)c1)NCCOC(=O)c1ccccc1 (stereo not given)	-0.1	-1.8
CC(C)NNC(=O)c1ccncc1	-0.1	14
CCN(CCCCOC(=O)c1ccc(OC)c(OC)c1)C(C)Cc1ccc(OC)cc1 (stereo not given)	0.6	5.5
COc1ccc(-c2cc(C(F)F)nn2-c2ccc(S(N)(=O)=O)cc2)cc1F	-0.1	5.3
C[C@@H]1CC[C@]2(C(=O)O)CC[C@]3(C)C(=CCC4[C@@]5(C)C[C@@H](O)[C@H](O)[C@@](C)(CO)C5CC[C@]43C)C2[C@H]1C (stereo not given in full)	0.0	-1.5

4 of these compounds in another layout.
CC[C@]12CCCN3CCc4c(n(c5ccccc45)[C@](O)(C(=O)OC)C1)[C@@H]32
  A1 inhib = 0.7; BJeLR viab HTS = -1.1

CC(C)(C)NCC(O)COc1cccc2c1C[C@H](O)[C@H](O)C2 (stereo not given in full)
  A1 inhib = 0.7; BJeLR viab HTS = 0.8

COc1ccc(C(=O)c2ccccc2)c(O)c1
  A1 inhib = -0.5; BJeLR viab HTS = 2.7

CC(Cc1cccc(C(F)(F)F)c1)NCCOC(=O)c1ccccc1 (stereo not given)
  A1 inhib = -0.1; BJeLR viab HTS = -1.8

Three compounds picked at random from those above:
SMILES	A1 inhib	BJeLR viab HTS
CC(C)NNC(=O)c1ccncc1	-0.1	14
CN(C)CCCSc1ccccc1NC(=O)/C=C/c1ccccc1	-3.7	7.1
CCN(CCCCOC(=O)c1ccc(OC)c(OC)c1)C(C)Cc1ccc(OC)cc1 (stereo not given)	0.6	5.5
